# From PubChem BioAssay
# MITF inhib = inhibitors of MITF, primary screen, MITF inhibitor project, cell-based, luminescence; TRPM1 promoter luciferase, 24 h; inhibition, % (concentration not given with the values); 37,000 tested, 0.28% active; AID 2240, 2010;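 active = most replicates at 85% or more, or half of them and the mean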;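 note: human melanocyte line stably carrying TRPM1 promoter luciferase reporter; 0% = vehicle wells and 100% = a positive control; the first replicate is given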
# Numbers without * were called inactive. Some of the compounds tested, so the mix of outcomes need not match the whole.
SMILES,MITF inhib
COCCNC(=O)c1ccccc1NC(=O)Nc1ccc(Cl)cc1,-74
COc1cc(C(c2c[nH]c3ccccc23)c2c[nH]c3ccccc23)c(O)c([N+](=O)[O-])c1,30
COCCn1c(=O)c2c3c(sc2n(CC(N)=O)c1=O)CCCC3,-15
O=C(CSc1nnc(-c2ccccc2Cl)n1-c1ccccc1)Nc1ccccc1C(F)(F)F,24
CCN(CC(=O)O)S(=O)(=O)c1cc(Cl)ccc1Cl,-2
Cc1cccnc1NC(=O)Cn1nc([N+](=O)[O-])cc1C,-4
COc1ccc(NS(=O)(=O)c2ccc3oc4ccccc4c3c2)cn1,26
Cc1cccc(-n2c(CCN3C(=O)c4ccccc4C3=O)nc3ccccc3c2=O)n1,-59
CCOc1ccc(NC(=O)c2c(NC(=O)c3ccco3)sc3c2CCCCC3)cc1,22
O=C(Nc1cccc(Cn2cccn2)c1)c1cc(-c2cccnc2)nc2ccc(Cl)cc12,4
CC(NC(=O)COc1ccc(Cl)cc1Cl)C(=O)O (stereo not given),-19
COC(=O)c1c(NC(=S)Nc2ccc(CC(=O)O)cc2)sc(C)c1C,8
Cc1cc(I)ccc1NC(=O)CCN1C(=O)c2cccc([N+](=O)[O-])c2C1=O,25
O=C(CN1C(=O)c2ccccc2S1(=O)=O)Nc1ccccc1C(=O)N1CCOCC1,-2
CCc1c(C)sc(NC(=O)c2cc(-c3ccccn3)nc3c(C)cccc23)c1C(=O)N1CCCCC1,25
Cc1ccc(OCC(=O)Nc2cccc(NC(=O)c3ccco3)c2)cc1C,-47
CC(C)N(Cc1nc(-c2ccccc2Cl)no1)C(=O)c1ccccc1-c1ccccc1,13
Cc1ccc(S(=O)(=O)NC(C)C(=O)Nc2ccc(I)cc2)cc1 (stereo not given),28
O=C(CN1CCN(c2cccc(Cl)c2)CC1)Nc1ccc([N+](=O)[O-])cc1C(=O)Nc1ccccc1F,-15
COc1ccc(CN2CCN(C(=O)c3cc(-c4cccnc4)nc4ccc(Cl)cc34)CC2)c(OC)c1OC,-29

# An excerpt from further up, for reference:
SMILES,MITF inhib
CC(C)N(Cc1nc(-c2ccccc2Cl)no1)C(=O)c1ccccc1-c1ccccc1,13
Cc1ccc(S(=O)(=O)NC(C)C(=O)Nc2ccc(I)cc2)cc1 (stereo not given),28
O=C(CN1CCN(c2cccc(Cl)c2)CC1)Nc1ccc([N+](=O)[O-])cc1C(=O)Nc1ccccc1F,-15
COc1ccc(CN2CCN(C(=O)c3cc(-c4cccnc4)nc4ccc(Cl)cc34)CC2)c(OC)c1OC,-29

# Additional structures
SMILES,MITF inhib
COc1ccc(NC(=O)CN2CCN(S(=O)(=O)c3ccc(F)cc3)CC2)cc1,-22
CCN(CC)CCNc1ncnc(N)c1[N+](=O)[O-],-20
CCOc1ccc(C(C)=O)cc1Cc1c(O)nc(N)[nH]c1=O,-11
CCc1nc(CNC(=O)c2cc(OC)c(OC)c(OC)c2)no1,-2
CCOc1ccc(NC(=O)Cn2cc([N+](=O)[O-])cn2)cc1,-4
COc1ccccc1NC(=O)c1cnc(Nc2nc3ccccc3s2)nc1C,-37
COc1ccc(NC(=O)C(C)Oc2ccccc2C)c([N+](=O)[O-])c1 (stereo not given),-17
Cc1cnc(SCc2cnc(C)nc2N)nc1,-8
COc1cc(NC(=O)C(C)Oc2ccc(Cl)cc2C)c(C(=O)O)cc1OC (stereo not given),-11
CC(=O)Nc1ccccc1NC(=O)COc1ccc(Cl)c(C)c1,20
CCCc1ccc(-c2cc(C(=O)NCc3cccnc3)c3ccccc3n2)cc1,-65
COc1ccccc1NC(=S)NCc1ccc(S(N)(=O)=O)cc1,3
O=C(CSc1nnnn1C1CC2CCC1C2)Nc1ccnc2ccccc12 (stereo not given),43
O=C(NCc1cccnc1)c1ccc2c(c1)C(=O)N(CC1CCCO1)C2=O (stereo not given),-17
COc1cc(NC(=O)CSc2nncn2C)cc(OC)c1OC,-8
Cc1cc(Cn2ccc(C(F)(F)F)n2)c(C)c(-c2c(C#N)c(N)nc3c2CCCC3)c1,34
O=C(CSc1nc(O)cc(=O)n1-c1ccccc1)Nc1ccc2ccccc2c1,3
Fc1ccccc1CSc1nnc(Cn2cnc3ccccc32)n1-c1ccccc1,-21
COc1ccccc1N1CCN(C(=O)CN(c2cc(Cl)ccc2OC)S(C)(=O)=O)CC1,-1
CCOC(=O)c1ccc(COC(=O)c2cc(=O)[nH]c3ccccc23)o1,-16
COc1cccc(-c2nn(-c3ccccc3)cc2C(=O)NCC(=O)O)c1,9
CCn1c(SCC(=O)Nc2ccc(I)cc2)nnc1-c1ccccc1F,38
Cc1ccc(Cl)c(NC(=O)NCCN2CCN(c3ccccc3[N+](=O)[O-])CC2)c1,-1
COc1ccc(CCNC(=O)c2ccccc2Sc2ccccc2C#N)cc1OC,1
COc1cccc2cc(C(=O)C3C(=O)C(=O)N(Cc4ccco4)C3c3ccc(F)cc3)oc12 (stereo not given),15
COc1ccc(NC(=O)C(=O)NCc2cccnc2)cc1,-9
O=C(Nc1c(Cl)cc(Cl)cc1C(=O)NCCN1CCOCC1)c1cccc([N+](=O)[O-])c1,-13
O=C(COc1ccc2oc3c(c2c1)CCCC3)NCCN1CCOCC1,-5
CCN(CC(=O)Nc1cccc(Cl)c1C)S(=O)(=O)c1ccc(F)cc1,-8
COc1ccc(F)cc1S(=O)(=O)n1cnc2ccccc21,-13
CC1(C)Cc2c(sc3c2c2ncnn2c2nnc(SCC(=O)NCc4ccccc4)n32)CO1,13
COc1cc(OC)cc(-c2nnc(SCC(=O)c3cccc([N+](=O)[O-])c3)o2)c1,-11
O=C(Nc1cccc(Cn2cccn2)c1)c1cc(-c2ccncc2)nc2ccc(Br)cc12,-1
Cc1ccc(C(=O)Nc2sc3c(c2C(=O)NCc2ccco2)CCCC3)cc1,13
Cc1cc(C(F)(F)F)nc(SCC(=O)Nc2ccc(I)cc2)c1C#N,-11
CCN(CC(=O)Nc1cccc(Cl)c1C)S(=O)(=O)c1ccc(OC)cc1,1
Cc1nc(-c2ccccc2)sc1C(=O)C1C(=O)C(=O)N(CCN2CCOCC2)C1c1ccccc1F (stereo not given),-5
COC(=O)c1ccccc1NC(=O)c1ccccc1N(C)S(=O)(=O)c1ccccc1,-1
CC(=O)c1c(C)n(CC(=O)O)c2ccccc12,-32
Cc1ccccc1Cn1ccc(NC(=O)c2nn3c(c2Cl)NC(c2ccccc2)CC3C(F)(F)F)n1 (stereo not given),24

# Part of the list above in a different format:
molecule	MITF inhib
Cc1ccccc1Cn1ccc(NC(=O)c2nn3c(c2Cl)NC(c2ccccc2)CC3C(F)(F)F)n1 (stereo not given)	24
Cc1nc(-c2ccccc2)sc1C(=O)C1C(=O)C(=O)N(CCN2CCOCC2)C1c1ccccc1F (stereo not given)	-5

# More entries
SMILES,MITF inhib
COc1ccc(-n2c(SCCCN3C(=O)c4cccc5cccc(c45)C3=O)nnc2-c2cccnc2)cc1,25
Cc1cccc(OCC(=O)Nc2cccc(-c3nc4cc(C)ccc4o3)c2)c1,-19
CCn1c(=O)c2c3c(sc2n2c(SCC(=O)Nc4ccc(Cl)cc4)nnc12)CCCC3,-8
Cc1ccc(C)c(NC(=O)Cn2cnc3ccccc3c2=O)c1,2
COc1ccc(S(=O)(=O)NCc2ccco2)c2ccccc12,30
CC(C(=O)Nc1ccc(F)c(F)c1)N(c1ccc(Cl)cc1)S(C)(=O)=O (stereo not given),32
O=C(COc1ccc([N+](=O)[O-])cc1)Nc1ccc(N2CCN(C(=O)c3ccco3)CC2)cc1,-1
COc1cccc(CC(CC(=O)O)C(=O)O)c1 (stereo not given),21
CCOc1ccccc1NC(=O)C1CC(=O)n2ncnc2N1 (stereo not given),2
COC(=O)c1ccccc1NC(=O)COc1cc(C)ccc1C(C)C,-15
Cc1cccc(NC(=O)CSc2nc3sc4c(c3c(=O)[nH]2)CCCC4)c1,12
O=C(CSc1nnc(-c2ccccc2O)n1-c1ccccc1)Nc1ccccc1Cl,21
Cc1sc2ncnc(SCC(=O)C(C)(C)C)c2c1C,4
CCOC(=O)c1ccc(Cn2c(-c3ccccc3)nnc2-c2ccccc2)o1,-22
NC(=O)CSc1nnc(-c2cccs2)n1-c1ccccc1,3
Nc1nc(SCc2nnc(Nc3ccccc3)s2)nc2sc3c(c12)CCC3,23
COC(=O)Nc1ccc2c(c1)N(C(=O)CCN1CCOCC1)c1ccccc1CC2,11
COc1cc(OC)c(NC(=O)CSc2nnnn2-c2ccccc2)cc1Cl,-15
COc1cc2c(cc1NC(=O)CCOc1ccc(C)cc1)oc1ccccc12,-4
O=C(NCc1cccnc1)c1cc(-c2cccc(Cl)c2)nc2ccccc12,17
CCOc1ccc(NC(=O)Cn2c(=O)n(-c3ccc(Cl)cc3)c(=O)c3c4c(sc32)CCC4)cc1,-1
Cc1ccc(Cn2ncc3c(N4CCN(CCOc5ccc(C)cc5)CC4)ncnc32)cc1,35
O=C(NCc1ccco1)c1cccc(NC(=O)c2ccc(Br)cc2)c1,-23
COc1ccc(C(=O)NCC(=O)Nc2ccc(F)cc2)cc1OC,-21
O=C(O)C1CCCN1C(=O)c1cncc(Br)c1 (stereo not given),70
O=C(COc1ccccc1[N+](=O)[O-])Nc1ccc2oc(-c3cc(Br)ccc3Cl)nc2c1,18
COc1nnc(-c2ccc(N3CCOCC3)c(NC(=O)COc3cccc(C)c3)c2)c2ccccc12,8
COc1cc(NC(=O)CSc2nnnn2-c2ccccc2)cc(OC)c1OC,6
CCn1c2ccccc2c2cc(NC(=O)CN3C(=O)c4ccccc4C3=O)ccc21,14
O=C(NCCCn1ccnc1)c1nn2c(C(F)(F)F)cc(-c3cccs3)nc2c1Br,-8
NC(=O)CN1C(=O)C(O)(CC(=O)c2ccc(Cl)s2)c2ccccc21 (stereo not given),29
COC(=O)CN(c1ccc(C)c(Cl)c1)S(=O)(=O)c1ccccc1,-14
COC(=O)c1cccc(NC(=O)COc2cccc([N+](=O)[O-])c2)c1,-17
CC(C)N(C(=O)CSc1nc2ccc(Cl)cc2[nH]1)c1ccccc1,8
NC(=O)CSc1nc(N)c(-c2ccccc2)c(=O)[nH]1,-1
CCOC(=O)C(C)Sc1nc2ccc(I)cc2c(=O)n1-c1ccccc1OC (stereo not given),34
COC(=O)c1cc(NC(=O)CSC2=NCCS2)cc(C(=O)OC)c1,-18
Cc1ccc(Cl)cc1NC(=O)CSc1cc(C)c2cccc(C)c2n1,-14
COC(=O)c1cc(NC(=O)CN(c2ccc(F)c(Cl)c2)S(C)(=O)=O)ccc1Cl,-3
Cc1ccc(-c2ccc(CCC(=O)O)n2CC2CCCO2)cc1 (stereo not given),-1

# Quoted at random: 3 records from the list, in no set order.
SMILES,MITF inhib
COC(=O)c1cc(NC(=O)CN(c2ccc(F)c(Cl)c2)S(C)(=O)=O)ccc1Cl,-3
COC(=O)c1cc(NC(=O)CSC2=NCCS2)cc(C(=O)OC)c1,-18
CCOC(=O)C(C)Sc1nc2ccc(I)cc2c(=O)n1-c1ccccc1OC (stereo not given),34

# Next part
SMILES,MITF inhib
CC(=O)CSc1nnc(-c2cccnc2)o1,-65
COC(=O)c1c(NC(=S)Nc2cc3oc4ccccc4c3cc2OC)sc2c1CCC2,13
CNC(=O)CN(c1ccc(C)cc1)S(=O)(=O)c1ccccc1,5
COc1ccccc1NC(=O)C1=C(C)Nc2nnnn2C1c1cccnc1 (stereo not given),-36
Cc1ccc(S(=O)(=O)NCC(=O)Nc2cccc([N+](=O)[O-])c2)cc1,4
CCc1nc2sc3c(c2c2nnc(SCC(=O)Nc4ccccc4)n12)CCC3,-12
Cc1ccc(S(=O)(=O)NC(C)C(=O)Nc2ccc(C)c(Cl)c2)cc1 (stereo not given),7
CN1CCN(c2ccccc2NC(=O)COc2ccc(Cl)cc2)CC1,-19
O=C(O)CCCC(=O)Nc1cccc2ccccc12,-11
Cc1ccnc(NS(=O)(=O)c2ccc(NC(=O)c3cccs3)cc2)n1,-3
Cn1c(NCc2ccco2)nc2c1c(=O)n(Cc1ccc(Br)cc1)c(=O)n2C,18
COc1cc(NC(=O)CSc2nnc(-c3ccncc3)n2C)cc(OC)c1,0
CCOc1ccc(N(Cc2cc3ccc(C)cc3[nH]c2=O)S(C)(=O)=O)cc1,23
COc1ccc(NC(=O)C(Cc2ccccc2)N2C(=O)c3ccccc3C2=O)cc1 (stereo not given),11
O=C(c1ccc(NCc2cccnc2)c([N+](=O)[O-])c1)N1CCCCC1,7
O=C(Nc1cccc(Cl)c1)c1ccc(NCc2ccco2)c([N+](=O)[O-])c1,-26
Cc1c(-n2c(/C=C\c3ccc([N+](=O)[O-])o3)nc3ccccc3c2=O)c(=O)n(-c2ccccc2)n1C,43
CCn1c(SCC(=O)N2CCOCC2)nnc1-c1c[nH]c2ccccc12,-8
Cc1ccc([N+](=O)[O-])cc1NC(=O)CSc1nnc(-c2ccncc2)n1-c1ccccc1,10
Cc1cccc(OCC(=O)Nc2ccc(Cl)c(-c3nc4ccc(C)cc4o3)c2)c1,3
COc1cc(NC(=O)C2c3ccccc3Oc3ccccc32)c(OC)cc1NC(=O)c1ccccc1,14
CCn1c(SCC(=O)Nc2ccc(Cl)cc2Cl)nnc1-c1ccc(Cl)c(Cl)c1,5
CCOc1ccccc1-c1nc(SCC(=O)Nc2ccc(I)cc2)n[nH]1,31
Cc1nn(-c2ccccc2)c(CC(C)(C)C(=O)O)c1C(=O)O,-6
CC(=O)Nc1nc(-c2ccccc2)nc(-c2ccccc2OC(C)=O)n1,29
COC(=O)c1ccccc1NC(=O)NCc1ccc(C(=O)O)cc1,-8
CCOC(=O)Cn1c2ccc(Cl)cc2c2nc3ccccc3nc21,14
COc1ccc(S(=O)(=O)NCc2ccco2)cc1OC,-18
COCCCN=C1NS(=O)(=O)c2ccccc21,-8
CCC(=O)Nc1nc2ccccc2n1CCN1CCOCC1,7
COC(=O)c1ccc(C(=O)OC)c(NC(=O)c2cc(-c3ccccn3)nc3c(C)c(C)ccc23)c1,-14
COc1ccc(C(C)=O)cc1CSc1nnc(-c2ccc(Br)cc2)n1-c1ccccc1,17
O=C(NCCN1CCOCC1)c1cc2ccccc2o1,-18

# Copied from the list:
# Value of `CC(C)N(Cc1nc(-c2ccccc2Cl)no1)C(=O)c1ccccc1-c1ccccc1` in MITF inhib: 13
# Value of `COC(=O)c1ccccc1NC(=O)COc1cc(C)ccc1C(C)C` in MITF inhib: -15
